# GIRK2 activ = activators of human GIRK2 potassium channels; HEK293-GIRK2 thallium flux, Thallos fluorescence; calls only for hits at 25 µM; G protein-activated inward rectifier potassium channel 2 (Homo sapiens), P48051; 63,000 compounds, 0.05% hits;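 active = among the strongest 0.2% of first-round signals and kept after retests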;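 also: first round at about 10 µM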
# Target sequence (P48051 whole entry, looked up): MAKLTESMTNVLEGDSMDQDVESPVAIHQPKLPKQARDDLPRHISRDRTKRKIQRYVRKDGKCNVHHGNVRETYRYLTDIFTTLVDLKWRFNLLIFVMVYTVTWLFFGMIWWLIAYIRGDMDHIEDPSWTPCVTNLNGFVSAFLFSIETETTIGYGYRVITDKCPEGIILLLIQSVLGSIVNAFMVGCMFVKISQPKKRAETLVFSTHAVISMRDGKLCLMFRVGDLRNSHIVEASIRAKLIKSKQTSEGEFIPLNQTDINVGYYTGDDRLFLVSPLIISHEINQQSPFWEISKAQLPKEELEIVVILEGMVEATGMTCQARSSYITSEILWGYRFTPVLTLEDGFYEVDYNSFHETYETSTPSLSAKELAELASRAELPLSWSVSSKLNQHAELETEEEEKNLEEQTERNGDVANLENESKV
# Calls only; i = inactive. These rows are one share of the data, so the mix of outcomes need not match the whole.
SMILES,GIRK2 activ
O=C(Nc1nc(C(=O)Nc2ccc(F)cc2F)co1)c1cnccn1,i
O=C1CCCN1c1ccc(Cn2nc3ccc(-c4ccccc4)nn3c2=O)cc1,i
COc1ccccc1N1C(=O)N(c2ccccc2OC)C2CS(=O)(=O)CC21 (centres undefined),i
O=c1ccc(S(=O)(=O)N2CCOCC2)cn1Cc1cccc(C(F)(F)F)c1,i
COc1ccc2c(c1)c(CC(=O)N(C)C)c(C)n2C(=O)c1ccc(Cl)cc1,i
O=C(NCC1CCCO1)c1csc(Nc2ccc(OC(F)F)cc2)n1 (centres undefined),i
COCCNC(=O)Nc1ccc(-c2nc3ccccc3s2)cc1,i
Cc1ccc(NC(=O)Nc2ccc(-c3ccc(N4CCN(C)CC4)nn3)cc2)cc1,i
COc1ccc(-c2csc3c(=O)n(CC(=O)Nc4cc(C)c(Cl)cc4OC)cnc23)cc1,i
CCOC(=O)c1c(NC(=O)c2cc3c(=O)n4ccccc4nc3s2)sc2c1CCCC2,i
O=S1(=O)CCCCN1c1ccc(S(=O)(=O)N(CCc2ccccc2)Cc2ccccn2)cc1,i
COc1cccc(-n2ccn(CC(=O)Nc3ccc(OC)c(Cl)c3)c(=O)c2=O)c1,i
C=CCOCC(O)Cn1c(N(C)Cc2ccccc2)nc2c1c(=O)n(C)c(=O)n2C (centres undefined),i
O=C(NCC1CCN(c2ncccn2)CC1)NC1CCCCCC1,i
Cc1ccc(C2C(=C(O)c3ccccc3)C(=O)C(=O)N2c2nncs2)cc1 (centres undefined),i
O=C(Cc1ccc(Cl)cc1)N1CCN(c2cc(-n3cccc3)ncn2)CC1,i
Cc1cc2oc3c(c(=O)c2cc1C)C(c1cccc([N+](=O)[O-])c1)N(CCN(C)C)C3=O (centres undefined),i
COc1ccc2cc(/C=C(\C#N)c3nc4ccccc4s3)c(=O)[nH]c2c1,i
NC(=O)c1c(N)n(-c2cccc(F)c2)c2nc3ccccc3nc12,i
CC(=O)c1ccc(NC(=O)CSc2nc3cc(-c4ccccc4)sc3c(=O)n2C)cc1,i
COCCN(Cc1ccoc1)C(=O)NC12CC3CC(CC(C3)C1)C2,i
CC(C)c1ccc(/C=C2\Oc3c(ccc4c3CN(C3CCS(=O)(=O)C3)CO4)C2=O)cc1 (centres undefined),i
Cc1ccc(-c2cc3c(=O)n(Cc4nc(-c5ccc(F)c(Br)c5)no4)ccn3n2)cc1C,i
NC(=O)c1ccc([N+](=O)[O-])c(N)c1,i
CS(=O)(=O)c1ccccc1NC(=O)CCS(=O)(=O)c1ccccc1,i
CCOc1nc2ccccc2nc1N1CCOCC1,i
COC(=O)c1ccccc1NS(=O)(=O)c1ccc(NC(C)=O)cc1,i
O=C(Cc1ccccc1)N1CCN(c2ncnc3c2nnn3-c2ccc(Cl)cc2)CC1,i
Cc1ccc(N2CCC(C(=O)NCc3sc(-c4cccs4)nc3C)CC2)nn1,i
COC(=O)c1ccc(CN2CC(c3nc(-c4cccs4)no3)C2)o1,i
COc1ccccc1CNC(=O)C1(c2cccs2)CCCC1,i
CC(C(=O)NCC1CCCO1)n1nnc2ccccc2c1=O (centres undefined),i
Cc1nc(C)c(C(=O)OC2CN(c3nc4c(Cl)cccc4s3)C2)s1,i
Cc1c(C)n2c3c(=O)n(CCN4CCOCC4)c(=O)n(C)c3nc2n1C1CCCC1,i
C=CCN1CCN(C(=O)c2sccc2N(C)S(=O)(=O)c2c(C)cc(C)cc2C)CC1,i
Cc1cccc(Cn2c(C3CC(=O)N(Cc4ccccc4)C3)nc3ccccc32)c1 (centres undefined),i
O=C(Cc1csc(Nc2ccc(OC(F)(F)F)cc2)n1)NC1CCCC1,i
O=C(COc1ccccc1)NCCOc1ccc2nnc(-c3cccc(F)c3)n2n1,i
OC(CN1CCN(C2CCCCC2)CC1)c1ccc2c(c1)OCO2 (centres undefined),i
O=C(c1ccsc1)N1CCN(CCNS(=O)(=O)CCN2C(=O)CCCC2=O)CC1,i
COc1ccc(-c2cc(N3CCC(C(=O)Nc4ccc(F)c(Cl)c4)CC3)ncn2)cc1,i
CC(C)Cn1c(=O)c2ccc(C(=O)NC(C)C)cc2n2c(=O)n(Cc3ccc(Cl)cc3)nc12,i
CSc1ncc(Cl)c(C(=O)NCc2ccco2)n1,i
C=CCN1CC(c2nc3ccccc3n2CCOc2ccccc2)CC1=O (centres undefined),i
COc1ccccc1-c1cnc(N)nc1-c1ccc(OCc2ccccc2)cc1O,i
C=CCNC(=O)N1CCN(c2nc3c(F)cc(F)cc3s2)CC1,i
CCCc1cc(NCCN2CCOCC2)n2nc3nc(C)cc(C)c3c2n1,i
O=C1CCC(=O)N1Cc1ccc(S(=O)(=O)Nc2cccc(Cl)c2)cc1,i
CCOCCCNC(=O)c1cc2c(=O)n3cccc(C)c3nc2n1Cc1ccccc1,i
COc1ccccc1/C=C1/SC(=S)N(c2ccc3c(c2)OCO3)C1=O,i
COc1cc(NC(=O)NCc2nnnn2-c2ccc(C)c(C)c2)cc(OC)c1OC,i
Cc1ccc(-n2cc(C(=O)N3CCC(NC(=O)c4ccc(F)c(F)c4)CC3)nn2)cc1C,i
COc1ccc(NC(=O)CCSc2nc3c(c(C(F)(F)F)c2C#N)CCCC3)cc1,i
COc1ccc(C)cc1NC(=O)CSc1nc2c(-c3ccc(C)cc3)csc2c(=O)n1C,i
O=C(O)CSc1nnc(-c2cccc(S(=O)(=O)N3CCCCC3)c2)o1,i
COc1ccc(OC)c(S(=O)(=O)NCC#CCOc2ccccc2OC)c1,i
COCCn1c(C(=O)N2CCC(C(N)=O)CC2)cc2c(=O)n(C)c(=O)n(C)c21,i
O=C(NCc1ccccc1)N1CCC2(CC1)OCCS2,i
C=C1C(O)C(O)C2(CC3C(C)=CCC4C(C)(CO)CCCC34C)OC2C1O (centres undefined),i
O=C(CSc1cc(-n2ccc(C(=O)NC3CC3)n2)ncn1)Nc1ccccc1Cl,i
# (next part)
SMILES,GIRK2 activ
COC(=O)c1ccc(CN2CCC(c3nnc(C(F)(F)F)o3)CC2)o1,i
COc1ccc(OC)c(S(=O)(=O)Nc2ccc3c(c2)CCC(=O)N3)c1,i
CS(=O)(=O)NCCn1ncc2c(N3CCCCCC3)ncnc21,i
COC(=O)c1sccc1S(=O)(=O)N1CC(c2nc(-c3ccc[nH]c3=O)no2)C1,i
COc1ccc(CCNC(=O)Nc2c[nH]c3ccccc23)cc1,i
COCCn1c(C(=O)NCCc2ccccc2OC)cc2c(=O)n(C)c(=O)n(C)c21,i
COC(=O)CCCCCC[C@H]1C(O)CC(O)[C@@H]1CCC(O)C#Cc1ccccc1F (some centres undefined),i
COc1ccc2c(c1)c(CC(=O)NC(C)c1cccnc1)c(C)n2C(=O)c1ccc(Cl)cc1 (centres undefined),i
O=C(NCCCCN1CCCC1)c1cnc2ccccc2n1,i
Cc1nc(N2CCN(C(=O)C(C)(C)C)CC2)cc(-n2cccn2)n1,i
COc1ccc(S(=O)(=O)N2CCCC2CNC(=O)C(=O)NCc2ccccn2)cc1 (centres undefined),i
O=C(NCc1ccc(F)cc1)N1CCCC(c2nnc(-c3ccc4c(c3)OCO4)o2)C1 (centres undefined),i
O=C(NCc1cccs1)C(=O)NCC(O)c1ccc2c(c1)CCO2 (centres undefined),i
Cc1c(C)n2c3c(=O)n(CCN4CCOCC4)c(=O)n(C)c3nc2n1C(C)c1ccccc1 (centres undefined),i
CCCOc1ccc(C2C(C(=O)c3ccco3)=C(O)C(=O)N2CCN(CC)CC)cc1 (centres undefined),i
O=C(c1cnccn1)N1CCN(C2=NN=C(c3ccccc3)CS2)CC1,i
Cn1cc(OCc2ccc(F)cc2)c(=O)cc1C(=O)N1CCN(Cc2ccc3c(c2)OCO3)CC1,i
O=C(Cc1ccc(F)cc1)N(Cc1cccnc1)c1nc2ccc(Cl)cc2s1,i
Cc1ccsc1C(O)CNC(=O)C(=O)Nc1ccc(OC(F)(F)F)cc1 (centres undefined),i
CC(C)N1CCC(CNC(=O)Nc2cccs2)CC1,i
COc1ccc(Nc2ncccc2S(=O)(=O)Nc2ccccc2)cc1OC,i
CCn1c(=O)c2ccccc2n(Cc2nc(-c3cc(OC)c(OC)c(OC)c3)no2)c1=O,i
CCOc1ccccc1-n1c(C)cn2c3c(=O)n(C/C=C/c4ccccc4)c(=O)n(C)c3nc12,i
COc1ccc(NC(=O)C(=O)NCC2COC3(CCCC3)O2)cc1OC (centres undefined),i
CS(=O)(=O)N1CCC(C(=O)NC2CCCC(OC(=O)Nc3ccc(F)cc3)C2)CC1 (centres undefined),i
CCOc1ccc2ccccc2c1C(=O)NCC(O)c1ccoc1 (centres undefined),i
CCOc1cc(C)c(C(C)C)cc1S(=O)(=O)NCCN1CCOCC1,i
Nc1nc2ccc(C(=O)O)cc2s1,i
NC(=O)c1ccc(NC(=O)C(=O)NCc2ccccc2)cc1,i
O=S(=O)(NCCCN1CCN(c2ccccc2)CC1)c1ccccc1,i
O=S(=O)(Nc1nc2ccccc2nc1NCC1CCCO1)c1cccs1 (centres undefined),i
CN1CCC(CNC(=O)C(C)(C)C)CC1,i
C=CCNC(=O)N1CCC(C(=O)Nc2nccs2)CC1,i
Cc1cn2c3c(=O)n(CCCc4ccccc4)c(=O)n(C)c3nc2n1CCCN(C)C,i
CC(C(=O)Nc1ccccc1-c1ccccc1)n1nc(-c2ccccc2)ccc1=O (centres undefined),i
O=S(=O)(C1CC1)N1CCN(c2ccccc2Cl)CC1,i
COC(=O)C1c2ccsc2CCN1C(=O)/C=C/c1ccc2c(c1)OCO2 (centres undefined),i
O=C(c1ccc2c(c1)OCO2)N(CCc1cccs1)Cc1ccco1,i
COc1ccc(/C=C/C(=O)N2CCC(C)CC2)cc1Br,i
Cc1ccc(C(=O)CSc2nnc3ccc4ccccc4n23)cc1C,i
CCOC(=O)c1ccc(NC(=O)c2ocnc2C)cc1,i
COCCn1c(-c2cc([N+](=O)[O-])cc([N+](=O)[O-])c2)nc2nc3ccccc3nc21,i
O=C(Cc1cccc2ccccc12)NC1CCCC(OC(=O)Nc2ccccc2)C1 (centres undefined),i
CC[C@H](C)C(=O)O[C@H]1CCC=C2C=C[C@H](C)[C@H](CC[C@@H]3C[C@@H](O)CC(=O)O3)[C@H]21,i
CC(=O)N1CCc2cc(S(=O)(=O)N3CCN(c4ccc5nnc(C)n5n4)CC3)ccc21,i
CCOc1ccc(-c2ccc(=O)n(CCNS(=O)(=O)c3ccc(OC)cc3OC)n2)cc1,i
CCOc1ccc(C)cc1S(=O)(=O)NCCCn1ccnc1-c1ccccc1,i
O=C(NCCCn1ccnc1-c1ccccc1)c1cc(-c2ccccc2)on1,i

# 17 of the compounds above, as tab-separated lines.
molecule	GIRK2 activ
NC(=O)c1ccc(NC(=O)C(=O)NCc2ccccc2)cc1	i
O=S(=O)(NCCCN1CCN(c2ccccc2)CC1)c1ccccc1	i
O=S(=O)(Nc1nc2ccccc2nc1NCC1CCCO1)c1cccs1 (centres undefined)	i
CN1CCC(CNC(=O)C(C)(C)C)CC1	i
C=CCNC(=O)N1CCC(C(=O)Nc2nccs2)CC1	i
Cc1cn2c3c(=O)n(CCCc4ccccc4)c(=O)n(C)c3nc2n1CCCN(C)C	i
CC(C(=O)Nc1ccccc1-c1ccccc1)n1nc(-c2ccccc2)ccc1=O (centres undefined)	i
O=S(=O)(C1CC1)N1CCN(c2ccccc2Cl)CC1	i
COC(=O)C1c2ccsc2CCN1C(=O)/C=C/c1ccc2c(c1)OCO2 (centres undefined)	i
O=C(c1ccc2c(c1)OCO2)N(CCc1cccs1)Cc1ccco1	i
COc1ccc(/C=C/C(=O)N2CCC(C)CC2)cc1Br	i
Cc1ccc(C(=O)CSc2nnc3ccc4ccccc4n23)cc1C	i
CCOC(=O)c1ccc(NC(=O)c2ocnc2C)cc1	i
COCCn1c(-c2cc([N+](=O)[O-])cc([N+](=O)[O-])c2)nc2nc3ccccc3nc21	i
O=C(Cc1cccc2ccccc12)NC1CCCC(OC(=O)Nc2ccccc2)C1 (centres undefined)	i
CC[C@H](C)C(=O)O[C@H]1CCC=C2C=C[C@H](C)[C@H](CC[C@@H]3C[C@@H](O)CC(=O)O3)[C@H]21	i
CC(=O)N1CCc2cc(S(=O)(=O)N3CCN(c4ccc5nnc(C)n5n4)CC3)ccc21	i

# New compounds follow:
SMILES,GIRK2 activ
COc1ccc(-c2cc(N3CCN(C(=O)Cn4ccc5ccccc54)CC3)ncn2)cc1,i
Cc1ccc(C(=O)/C=C/c2ccccc2C(=O)O)cc1,i
Cc1cc(C)cc(OCCNS(=O)(=O)c2ccc(Cl)cc2)c1,i
O=C(NCC1CCN(C(=O)c2ccncc2)CC1)c1ccc(Oc2ccccc2)cc1,i
COc1ccc(CC(=O)NCc2cc(-c3cccs3)n(C3CCCC3)n2)cc1OC,i
Cc1ccc(-n2c(=O)c3ccccc3n(Cc3cc(=O)n4ccccc4n3)c2=O)cc1,i
COc1ccc(Cl)cc1NC(=O)Cn1c(=O)c(N2CCCCC2)nc2ccccc21,i
Cc1ccc(Cn2c3c(c(=S)[nH]c2=O)CCCC3)cc1,i
CCCCn1c(SCc2nc(-c3ccc(OCC)cc3)no2)nc2ccsc2c1=O,i
Cc1nc(-n2nnc(C(N)=O)c2C)sc1C,i
O=C(NCC(F)(F)F)C1CCN(C(=O)c2cc(-c3cccs3)[nH]n2)CC1,i
Cc1cc(C)c(S(=O)(=O)NCCC(=O)N2CCOCC2)cc1N(C)S(C)(=O)=O,i
O=C(NCCC(O)c1ccccc1)c1ccc2nsnc2c1 (centres undefined),i
O=C(CSc1nnc(N2CCN(C(=O)CCc3ccccc3)CC2)s1)Nc1ccccc1,i
COc1cc(C)c(Cl)cc1S(=O)(=O)NCCCn1ccnc1,i
CC(C)NC(=O)CSc1nc2c(-c3ccccc3)c[nH]c2c(=O)n1C1CC1,i
CC(=O)Nc1cccc(NC(=O)C2CCN(c3ccc(=O)n(C)n3)CC2)c1,i
Cc1ccc2c(c1O)C(=O)c1c(cc(O)c(C(=O)O)c1C)C2(C)O (centres undefined),i

# Bioassay records as filed in PubChem BioAssay.
